Assay outcomes as filed in PubChem.
DUX4 inh – blocks DUX4-driven transcriptional activation; 293T-iDUX4 ZSCAN4-Gaussia luciferase reporter, 24 h; active compounds read low; activity change, negative = inhibition, % (test concentration not listed); 37,000 tested, 0.8% active; AID 1224904;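 active = -10% or lower and over 25 points stronger than a control reporter; inconclusive = -10% or lower with a smaller gap; inactive = above -10%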;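 also: 0% = median of neutral control wells and -100% = median of positive control wells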
DUX4 inh difference – further read-out of DUX4 inh, marked with its call; Gaussia minus Italica difference, %; measured here: selective DUX4 reporter inhibition;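 worked out from the two reporters; negative = selective loss of the DUX4 reporter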
DUX4 inh control – second read-out of DUX4 inh, no call of its own (marks repeat the call); activity change, negative = inhibition, %; measured here: Italica tet-on control reporter;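 0 = neutral control and -100 = positive control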
* hit, by the source's call; ? = inconclusive; . = no result given; & = joins results of further samples. This is a subset. The share of hits here may be higher or lower than overall.

Compound | DUX4 inh control | DUX4 inh | DUX4 inh difference
CN(C)CC(=O)N1[C@H](CO)[C@@H](c2ccccc2)C12CN(CCC(F)(F)F)C2 | -1.3 | 3.8 | 5.1
CC(C)C#Cc1ccc([C@H]2[C@H](CO)N3CCCCN(C(=O)c4ccc(F)cc4)C[C@@H]23)cc1 | 13.5 | -9.1 | -22.6
CCC(=O)N1[C@H](CO)[C@H]2c3ccccc3N(C(=O)Nc3ccccc3Cl)C[C@H]21 | 1.4 | -4.4 | -5.8
COCC(=O)N1[C@@H](C#N)[C@@H](c2ccccc2-c2cccc(C)c2)[C@@H]1CO | 9.0 | 8.8 | -0.2
C[C@H](CO)N1C[C@H](C)[C@@H](CN(C)C(=O)Nc2ccc3c(c2)OCO3)OCCCC[C@H](C)Oc2ccc(NS(=O)(=O)c3ccc(F)cc3)cc2C1=O | 0.1 | -0.3 | -0.3
O=C(C[C@@H]1CC[C@@H](NC(=O)c2ccc3c(c2)OCO3)[C@@H](CO)O1)NCc1ccc(Oc2ccccc2)cc1 | . | ? | .
COC(=O)N(C)C[C@H]1OCc2cnnn2CCCC(=O)N([C@H](C)CO)C[C@@H]1C | 1.0 | -3.5 | -4.5
Cc1ccc(S(=O)(=O)Nc2ccc3c(c2)C(=O)N([C@@H](C)CO)C[C@@H](C)[C@@H](CN(C)C(=O)Nc2c(C)noc2C)O3)cc1 | -2.4 | -0.9 | 1.5
CCCN1C[C@H](C)[C@H](OC)CN(C)C(=O)c2cc(NC(=O)NC3CCCCC3)ccc2OC[C@@H]1C | -3.9 | -2.3 | 1.5
O=C(NCC[C@H]1CC[C@@H](NC(=O)C2CC2)[C@H](CO)O1)Nc1ccc(C(F)(F)F)cc1 | 1.2 | -4.6 | -5.8
CC(C)NC(=O)N[C@@H]1CC[C@H](CC(=O)NC2Cc3ccccc3C2)O[C@H]1CO | 1.2 | 4.8 | 3.6
O=C(C1CCCCC1)N1[C@@H](CO)[C@@H](c2ccccc2)C12CN(Cc1cccc(Cl)c1)C2 | . | ? | .
C[C@H](NC(=O)N(C)C[C@@H]1OCc2ccccc2-c2ccccc2C(=O)N([C@H](C)CO)C[C@H]1C)c1ccccc1 | 1.0 | 6.4 | 5.3
C/C=C/c1ccc([C@@H]2[C@@H](C#N)N(c3ncc(CC)s3)[C@@H]2CO)cc1 | 2.3 | 7.2 | 4.9
COc1ccccc1CN1[C@@H]2CN(C(=O)c3ccncc3)c3ccccc3[C@@H]2[C@@H]1CO | -1.0 | 8.1 | 9.1

Record cards, as listed above. Values in the order: DUX4 inh control, DUX4 inh, DUX4 inh difference
COC(=O)N(C)C[C@H]1OCc2cnnn2CCCC(=O)N([C@H](C)CO)C[C@@H]1C across the screens: 1.0, -3.5, -4.5
O=C(NCC[C@H]1CC[C@@H](NC(=O)C2CC2)[C@H](CO)O1)Nc1ccc(C(F)(F)F)cc1 across the screens: 1.2, -4.6, -5.8
C[C@H](NC(=O)N(C)C[C@@H]1OCc2ccccc2-c2ccccc2C(=O)N([C@H](C)CO)C[C@H]1C)c1ccccc1 across the screens: 1.0, 6.4, 5.3
COc1ccccc1CN1[C@@H]2CN(C(=O)c3ccncc3)c3ccccc3[C@@H]2[C@@H]1CO across the screens: -1.0, 8.1, 9.1

Additional structures.
Compound | DUX4 inh control | DUX4 inh | DUX4 inh difference
COC(=O)C[C@H]1CC[C@H]2[C@@H](COc3ccc(NC(=O)c4cccc(Cl)c4)cc3C(=O)N2C)O1 | -2.1 | -2.3 | -0.2
O=C(c1cnccn1)N1CC(=O)N2[C@H](CO)[C@@H](c3ccc(C#CC4CC4)cc3)[C@H]2C1 | 14.9 | 5.4 | -9.5
CO[C@H]1CN(C)C(=O)c2ccc(NC(=O)Cc3ccccc3)cc2OC[C@H](C)N(CC2CC2)C[C@H]1C | 1.6 | -1.8 | -3.5
CO[C@H]1CN(C)C(=O)c2cccc(C#N)c2OCC[C@@H]2CC[C@H](OC)[C@@H](CN(C)C(=O)[C@H]1C)O2 | -18.1 | 10.1 | 28.2
O=C(C1CCCC1)N1CC2(C1)[C@@H](c1ccccc1)[C@@H](CO)N2Cc1ccccc1F | 5.8 | -3.1 | -8.9
COc1ccccc1S(=O)(=O)N1[C@@H]2CNC[C@H]1C2c1ccc(/C=C/c2ccccc2)cc1 (stereo partly drawn) | 7.6&5.5 | 1.0&7.6 | -6.6&2.0
COc1ccc(-c2ccccc2[C@H]2[C@@H](CO)N(C(=O)C3CCC3)[C@H]2C#N)cc1 | -6.1 | -3.5 | 2.5
N#C[C@H]1[C@H](c2ccccc2)[C@@H](CO)N1C(=O)c1ccccc1F | 0.0 | -1.7 | -1.7
CCNC(=O)[C@@H]1[C@@H](CO)[C@@H]2Cn3c(ccc(-c4ccc(F)cc4)c3=O)[C@@H]2N1C(=O)Cc1cccnc1 | 3.4 | 10.9 | 7.6
O=C(c1ccncc1)N1C[C@@H]2[C@H](c3ccccc31)[C@H](CO)N2C(=O)Nc1ccccc1Cl | -1.2 | 2.4 | 3.6
Cc1ccc(S(=O)(=O)N(C)C[C@@H]2Oc3ncc(Br)cc3C(=O)N([C@H](C)CO)C[C@H]2C)cc1 | 2.5 | 0.8 | -1.8
O=C(C1CCOCC1)N1CC(=O)N2[C@H](C1)[C@@H](c1ccc(Br)cc1)[C@@H]2CO | 9.2 | 10.5 | 1.3
COc1ccc2c3c(n(C)c2c1)[C@H](CO)N(C(=O)Nc1ccc(F)cc1)CC31CCN(C(=O)Nc2c(C)noc2C)CC1 | -11.9 | -9.5 | 2.4
CCS(=O)(=O)N1CC(=O)N2[C@@H](CO)[C@H](c3ccc(C#CC4CCCCC4)cc3)[C@@H]2C1 | 7.5 | 12.0 | 4.6
CCCNC(=O)[C@H]1[C@H](CO)[C@H]2Cn3c(cccc3=O)[C@@H]1N2Cc1cc(F)ccc1F | 0.4 | -1.9 | -2.3

New compounds follow.
Compound | DUX4 inh control | DUX4 inh | DUX4 inh difference
C[C@@H]1CN([C@@H](C)CO)C(=O)c2cc(NS(=O)(=O)c3cccs3)ccc2O[C@@H](C)CCCCO[C@@H]1CN(C)S(=O)(=O)c1cn(C)cn1 | 2.4 | 0.0 | -2.4
COc1ccc2c3c([nH]c2c1)[C@@H](CO)N(C)CC31CN(C(=O)c2cccnc2)C1 | 6.3 | 15.8 | 9.6
C[C@@H]1CN([C@H](C)CO)C(=O)CCCn2cc(nn2)CO[C@@H]1CN(C)Cc1ccc2c(c1)OCO2 | 4.1 | 4.8 | 0.6
Cc1nn(C)cc1NC(=O)C[C@H]1CC[C@@H]2[C@@H](COc3ccc(NC(=O)C4CCOCC4)cc3C(=O)N2C)O1 | -2.6 | -5.4 | -2.8
C[C@H]1CN([C@@H](C)CO)C(=O)c2cc(-c3ccccc3)cnc2O[C@@H]1CN(C)C(=O)c1ccccn1 | 0.8 | 5.4 | 4.6
CCC(=O)Nc1ccc2c(c1)OC[C@@H](C)N(C(=O)C1CC1)C[C@@H](C)[C@H](OC)CN(C)C2=O | -1.2 | -4.2 | -3.0
CCCNC(=O)N1CC2(CN(Cc3cccc(F)c3)C2)c2c([nH]c3cc(OC)ccc23)[C@H]1CO | . | ? | .
C[C@@H]1CN([C@H](C)CO)C(=O)c2c(c3ccccc3n2C)-c2ccccc2CO[C@H]1CN(C)C(=O)Cc1ccccc1 | 4.3 | -0.7 | -5.0
CO[C@@H]1CN(C)C(=O)c2cc(NC(C)=O)ccc2OC[C@H](C)N(C(=O)C2CC2)C[C@@H]1C | 2.7 | 4.9 | 2.2
CNC(=O)C[C@@H]1CC[C@@H]2[C@H](COc3ccc(NC(=O)c4ccccc4Cl)cc3C(=O)N2C)O1 | -3.4 | -3.6 | -0.2
C[C@H]1CN([C@@H](C)CO)C(=O)c2cc(C#Cc3ccccc3)cnc2O[C@@H]1CN(C)C(=O)c1ccccc1 | 2.3 | -1.1 | -3.5
COc1ccc2c3c([nH]c2c1)[C@H](CO)N(Cc1ccccc1)CC31CN(S(C)(=O)=O)C1 | . | ? | .
C[C@H](CO)N1C[C@H](C)[C@@H](CN(C)S(C)(=O)=O)OCc2ccccc2-c2ccccc2C1=O | . | ? | .
COc1cccc(-c2ccc3c(c2)[C@@H]2[C@@H](CCN2S(=O)(=O)c2ccccc2F)[C@@H](CO)N3)c1 | . | ? | .
Cc1noc(C)c1NC(=O)N(C)C[C@@H]1Oc2c(NS(=O)(=O)c3ccc(Cl)cc3)cccc2C(=O)N([C@@H](C)CO)C[C@H]1C | 3.4 | -0.7 | -4.2

(continued)
Compound | DUX4 inh control | DUX4 inh | DUX4 inh difference
CCCC(=O)Nc1ccc2c(c1)C(=O)N(C)C[C@@H](OC)[C@H](C)CN(Cc1ccccc1OC)[C@H](C)CO2 | -1.1 | -1.6 | -0.4
COc1cccc(C#Cc2ccc([C@H]3[C@H]4CN(C(=O)C5CC5)CC(=O)N4[C@H]3CO)cc2)c1 | . | ? | .
C[C@H](CO)N1C[C@H](C)[C@@H](CN(C)CC2CCCCC2)Oc2c(NC(=O)c3ccncc3)cccc2C1=O | -1.3 | 0.6 | 1.9
COc1ccc2c3c([nH]c2c1)[C@@H](CO)N(C(=O)NC(C)C)CC31CCN(Cc2ccc(F)cc2)CC1 | . | ? | .
OC[C@@H]1[C@H](c2ccc(C#Cc3ccccc3F)cc2)[C@H]2CN(Cc3cncnc3)CCCCN12 | . | ? | .
CNC[C@H]1Oc2ccc(NC(=O)Nc3c(C)noc3C)cc2C(=O)N([C@H](C)CO)C[C@H]1C | -0.2 | 1.6 | 1.9
C/C=C/c1ccc([C@H]2[C@@H](CNC(=O)CC)N(Cc3ccccn3)[C@H]2CO)cc1 | -7.0 | -6.5 | 0.5
COc1ccc(C#Cc2ccc3c(c2)[C@H]2[C@H](CCN2S(=O)(=O)c2ccccc2F)[C@H](CO)N3C)cc1 | -0.3 | -5.9 | -5.7
CC(C)CC#Cc1ccc([C@H]2[C@H]3CN(C(=O)Nc4ccc(F)cc4)CC(=O)N3[C@H]2CO)cc1 | -18.1 | -8.7 | 9.3
CCCNC(=O)N1CC(=O)N2[C@H](CO)[C@H](c3ccc(C#Cc4cccc(F)c4)cc3)[C@@H]2C1 | -3.3 | 0.0 | 3.3
O=C(C[C@H]1C[C@H]2c3cc(NC(=O)c4ccc5c(c4)OCO5)ccc3O[C@H]2[C@@H](CO)O1)NCc1ccccn1 | -1.5 | -9.5 | -8.0
CCCC(=O)Nc1ccc2c(c1)OC[C@@H](C)N(Cc1nccs1)C[C@H](C)[C@H](OC)CN(C)C2=O | -5.3 | -1.7 | 3.6
COc1cccc(NC(=O)N(C)C[C@@H]2OCc3cn(nn3)CCCC(=O)N([C@@H](C)CO)C[C@@H]2C)c1 | 2.8 | -2.7 | -5.5
O=C(c1ccncc1)N1CC2(C1)[C@H](c1ccccc1)[C@@H](CO)N2CC1CCOCC1 | 0.0 | 6.0 | 6.0
COc1ccc(NC(=O)N[C@@H]2CC[C@H](CCNS(=O)(=O)c3cccc(Cl)c3)O[C@H]2CO)cc1 | -0.3 | 6.5 | 6.8

Remaining list, next part.
Compound | DUX4 inh control | DUX4 inh | DUX4 inh difference
CO[C@@H]1CN(C)C(=O)c2ccc(NS(=O)(=O)c3ccccc3C)cc2OC[C@H](C)N(C)C[C@@H]1C | 1.4 | 6.2 | 4.8
CN1C(=O)c2cc(NC(=O)c3cccs3)ccc2OC[C@@H]2O[C@@H](CC(=O)NCC(F)(F)F)CC[C@@H]21 | 3.4 | 6.4 | 3.0
CO[C@@H]1CN(C)C(=O)c2cc(NC(=O)Nc3cccc(F)c3)ccc2OC[C@H](C)N(C(=O)C2CC2)C[C@H]1C | -2.3 | -5.3 | -2.9
OC[C@@H]1Nc2ccc(C3=CCCCC3)cc2[C@@H]2[C@H]1CCN2Cc1nccs1 | 1.3 | -6.5 | -7.8
COc1ccc2c3c([nH]c2c1)[C@@H](CO)N(Cc1ccccn1)CC31CN(Cc2cccc(F)c2)C1 | 9.0 | 12.1 | 3.1
CN1CCN(C(=O)C[C@H]2CC[C@H]3[C@@H](COC[C@H](O)CN3CC3CCCCC3)O2)CC1 | 1.0 | -1.2 | -2.2
C[C@H](CO)N1C[C@H](C)[C@H](CN(C)Cc2ccc(C(F)(F)F)cc2)OCc2cnnn2CCCC1=O | . | ? | .
CO[C@@H]1CN(C)C(=O)c2cc(NS(=O)(=O)c3cn(C)cn3)ccc2OC[C@H](C)N(CCC(F)(F)F)C[C@H]1C | 0.2 | -2.5 | -2.7
O=C(Nc1cc(F)ccc1F)N1C[C@H]2[C@@H](c3ccccc31)[C@@H](CO)N2Cc1cccnc1 | 1.8 | -0.5 | -2.3
CC(C)NC(=O)N1CC(=O)N2[C@H](CO)[C@@H](c3ccc(/C=C/c4ccccc4)cc3)[C@@H]2C1 | -2.0 | -5.3 | -3.3
CCC(=O)N1[C@H](CO)[C@H](c2ccc(-c3ccccc3OC)cc2)C12CN(C(C)=O)C2 | 2.4 | -0.3 | -2.7
CNC[C@H]1OCCCC[C@H](C)Oc2ccc(NC(=O)CCC(F)(F)F)cc2C(=O)N([C@@H](C)CO)C[C@@H]1C | 1.7 | 4.0 | 2.3
COC(=O)c1ccc(CN2CC(=O)N3[C@H](CO)[C@H](c4ccc(-c5ccccc5F)cc4)[C@H]3C2)cc1 | . | ? | .
C[C@H]1CN([C@@H](C)CO)C(=O)c2cccc(NS(=O)(=O)c3cn(C)cn3)c2O[C@H]1CN(C)C(=O)Nc1ccc(F)cc1 | 0.1 | -1.0 | -1.1
CN1c2ccc(-c3ccccc3F)cc2[C@@H]2[C@@H](CCN2S(=O)(=O)c2ccccc2)[C@H]1CO | 8.8 | 8.9 | 0.1
CCCNC(=O)[C@H]1[C@H](CO)[C@H]2Cn3c(ccc(C4=CCCC4)c3=O)[C@H]2N1C(=O)C1CC1 | -5.3 | -2.1 | 3.2
